Sa helicase inh – inhibitors of S. aureus replicative helicase, primary screen, biochemical, fluorescence unwinding readout. replicative DNA helicase (DnaC/DnaB), Staphylococcus aureus. inhibition, %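 (tested at about 80 µM)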. 120,000 compounds, 0.05% hits. purified S. aureus helicase, fluorescence unwinding assay; about half of the hits fall short of the stated cut. AID 485395, 2010;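 active = both duplicates at 50% or more, or one of them with a favoured structure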;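 note: 0% = mean of negative control wells and 100% = mean of positive control wells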
MgrA-DNA mod – S. aureus MgrA activity modulators, primary screen, biochemical, S. aureus Newman, fluorescence polarization; MgrA-DNA binding; inhibition, %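 (about 10 µg/mL by stock and volumes)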; 84,000 compounds, 0.13% hits;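 active = above 50% in either of two replicates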;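 note: 0% = protein plus DNA without compound and 100% = DNA alone without protein; higher means less MgrA bound to DNA so lower polarization; one replicate is shown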
Numbers without * were called inactive; · = not tested or not shown. Some of the compounds tested; the hit share may differ from the screen's.

SMILES: CSC(SC)=C(C#N)S(C)(=O)=O
  Sa helicase inh = 13.0 | MgrA-DNA mod = ·
SMILES: CNc1ccc(Cl)cc1C(=O)NN
  Sa helicase inh = · | MgrA-DNA mod = -2.8
SMILES: O=[N+]([O-])c1cccc(N=Cc2sc3ccccc3c2O)c1
  Sa helicase inh = · | MgrA-DNA mod = -1.4
SMILES: COc1cc(NC(=S)NC(=O)c2ccccc2)c(OC)cc1Cl
  Sa helicase inh = · | MgrA-DNA mod = 0.9
SMILES: Cc1ccc(-c2nc(C(=O)N3CCN(Cc4ccccc4)CC3)c3n2CCCCC3)cc1
  Sa helicase inh = 3.0 | MgrA-DNA mod = 0.6
SMILES: CCCC(CCC)n1[nH]c(=O)c2c(C)cc(C)nc21
  Sa helicase inh = 16.0 | MgrA-DNA mod = ·
SMILES: Cc1ccc(C(=O)c2cnc3cc4c(cc3c2S(=O)(=O)c2ccccc2)OCO4)cc1C
  Sa helicase inh = 4.0 | MgrA-DNA mod = -0.1
SMILES: S=c1nc(-c2ccccc2)n(-c2ccc(Br)cc2)c2c1CCCC2
  Sa helicase inh = 18.0 | MgrA-DNA mod = 0.3
SMILES: Cc1ccc(OS(=O)(=O)c2ccc(C#N)cc2)c(Br)c1
  Sa helicase inh = · | MgrA-DNA mod = -2.4
SMILES: Cc1nc2ccc(S(=O)(=O)NCC(=O)O)cc2s1
  Sa helicase inh = 10.0 | MgrA-DNA mod = ·
SMILES: Cc1nc(C)c2c(c1C(F)(F)F)-c1ccccc1C2(F)F
  Sa helicase inh = -15.0 | MgrA-DNA mod = ·
SMILES: COc1cc(C)c(C)cc1S(=O)(=O)NC1CC(C)(C)NC(C)(C)C1
  Sa helicase inh = -15.0 | MgrA-DNA mod = ·
SMILES: N#Cc1ccccc1NC(=O)CSc1ccccc1
  Sa helicase inh = -16.0 | MgrA-DNA mod = -1.3
SMILES: Cc1cc(=O)n2c(n1)NC(=NCc1ccccc1)NC2c1cccnc1 (stereo not drawn)
  Sa helicase inh = -3.0 | MgrA-DNA mod = 0.1
SMILES: Nc1ccc(C(=O)Oc2ccc(Oc3ccccc3)cc2)cc1
  Sa helicase inh = · | MgrA-DNA mod = -1.9
SMILES: CC(C)CC(C(=O)O)N1C(=O)C2C3C=CC(C3)C2C1=O (stereo not drawn)
  Sa helicase inh = 0.0 | MgrA-DNA mod = ·
SMILES: O=C(Nc1cc(C(F)(F)F)ccc1N1CCCCC1)c1sc2ccccc2c1Cl
  Sa helicase inh = · | MgrA-DNA mod = -2.6
SMILES: COc1ccc(OCC(=O)N2CCN(S(=O)(=O)c3ccc(OC)cc3)CC2)cc1
  Sa helicase inh = 13.0 | MgrA-DNA mod = 0.2
SMILES: O=C(Nc1cccc(C(F)(F)F)c1)C1CCN(S(=O)(=O)c2ccccc2)CC1
  Sa helicase inh = -22.0 | MgrA-DNA mod = ·
SMILES: CCn1c(=O)cc(SCC(=O)N(C)Cc2ccccc2)c2ccccc21
  Sa helicase inh = 8.0 | MgrA-DNA mod = -0.8
SMILES: COCCN(CCOC)S(=O)(=O)c1ccc(C(=O)Nc2nc3ccc(Br)cc3s2)cc1
  Sa helicase inh = · | MgrA-DNA mod = 0.1
SMILES: CCc1ccc(NC(=O)CSc2ccc3nnc(-c4ccccn4)n3n2)cc1
  Sa helicase inh = 4.0 | MgrA-DNA mod = 3.6
SMILES: Cc1cc(C)cc(-n2ccn3c(CCCC(=O)O)nnc3c2=O)c1
  Sa helicase inh = 35.0 | MgrA-DNA mod = ·
SMILES: CS(=O)(=O)N(CC(=O)O)c1ccc(Cl)cc1
  Sa helicase inh = -7.0 | MgrA-DNA mod = -5.0
SMILES: CCOc1cc(C(=O)Nc2cccc3c2C(=O)c2ccccc2C3=O)cc(OCC)c1OCC
  Sa helicase inh = · | MgrA-DNA mod = -0.4

Rewritten with values under each structure: part of the list above
Results follow in this order: Sa helicase inh	MgrA-DNA mod
- CCOc1cc(C(=O)Nc2cccc3c2C(=O)c2ccccc2C3=O)cc(OCC)c1OCC
  ·	-0.4
- Cc1cc(C)cc(-n2ccn3c(CCCC(=O)O)nnc3c2=O)c1
  35.0	·
- S=c1nc(-c2ccccc2)n(-c2ccc(Br)cc2)c2c1CCCC2
  18.0	0.3
- Nc1ccc(C(=O)Oc2ccc(Oc3ccccc3)cc2)cc1
  ·	-1.9
- Cc1nc(C)c2c(c1C(F)(F)F)-c1ccccc1C2(F)F
  -15.0	·
- COc1ccc(OCC(=O)N2CCN(S(=O)(=O)c3ccc(OC)cc3)CC2)cc1
  13.0	0.2

Other results follow.
SMILES: CCC(c1nnc(SCc2nnc(-c3ccccc3)o2)n1Cc1ccccc1)N(C)C (stereo not drawn)
  Sa helicase inh = -5.0 | MgrA-DNA mod = ·
SMILES: CC(C(=O)NCCCc1ccccc1)N1C(=O)C2CC=CCC2C1=O (stereo not drawn)
  Sa helicase inh = -11.0 | MgrA-DNA mod = ·
SMILES: COc1ccc(NCc2ccc3c(c2)OCO3)cc1
  Sa helicase inh = -5.0 | MgrA-DNA mod = -0.1
SMILES: CC(=O)N1c2ccc(S(=O)(=O)N3CCCC3C(=O)Nc3cccc(C)n3)cc2CC1C (stereo not drawn)
  Sa helicase inh = -19.0 | MgrA-DNA mod = ·
SMILES: O=C(O)C1CCCCC1C(=O)NC1CCCCC1 (stereo not drawn)
  Sa helicase inh = -15.0 | MgrA-DNA mod = -2.8
SMILES: Cn1c(SC/C([O-])=c2/sc3n(c2=O)c2ccccc2[n+]3C)nc2ccccc21
  Sa helicase inh = -15.0 | MgrA-DNA mod = ·
SMILES: COc1nc(C)c(Br)c(C)c1C#N
  Sa helicase inh = · | MgrA-DNA mod = 3.9
SMILES: CCOC(=O)Cn1nc(-c2ccccc2)ccc1=O
  Sa helicase inh = 3.0 | MgrA-DNA mod = ·
SMILES: Cn1cc(C(=O)N/N=C/c2ccc3ncccc3c2)ccc1=O
  Sa helicase inh = 2.0 | MgrA-DNA mod = ·
SMILES: CCCCCCCn1c(=N)n(CC(=O)c2ccco2)c2ccccc21
  Sa helicase inh = -21.0 | MgrA-DNA mod = ·
SMILES: O=C(C1CCCCC1)N1CCc2ccccc21
  Sa helicase inh = -2.0 | MgrA-DNA mod = -1.7
SMILES: Cc1cc(C(=O)COC(=O)C2CC2C)c(C)n1-c1cccc(S(=O)(=O)N2CCOCC2)c1 (stereo not drawn)
  Sa helicase inh = -7.0 | MgrA-DNA mod = ·
SMILES: COc1ccc(CCC(=O)c2ccc3c(c2)OCCO3)cc1
  Sa helicase inh = 17.0 | MgrA-DNA mod = 3.0
SMILES: CC1(C)CC(=O)c2cc(C#N)c(SCSc3nc4c(cc3C#N)C(=O)CC(C)(C)C4)nc2C1
  Sa helicase inh = 10.0 | MgrA-DNA mod = 1.4
SMILES: Cn1ccc(-c2cccc(NC(=O)Nc3ccccc3)c2)n1
  Sa helicase inh = · | MgrA-DNA mod = 1.0
SMILES: Cc1ccc(-c2csc(/N=C/c3cc(Br)ccc3O)n2)cc1
  Sa helicase inh = -19.0 | MgrA-DNA mod = 4.4
SMILES: Cc1ccc(/C(O)=C/C(=O)C(=O)Nc2ccc(S(=O)(=O)N3CCOCC3)cc2)cc1C
  Sa helicase inh = 7.0 | MgrA-DNA mod = 3.7
SMILES: Cc1ccc(S(=O)(=O)O/N=C(\N)c2ccc(C(F)(F)F)cc2)cc1
  Sa helicase inh = · | MgrA-DNA mod = 3.1
SMILES: CCn1nnnc1SCC(=O)N1c2ccccc2CCc2ccccc21
  Sa helicase inh = 7.0 | MgrA-DNA mod = -0.8
SMILES: COCCn1c(SCC(=O)NN2C(=O)NC(C)(c3ccccc3)C2=O)nc2ccccc21 (stereo not drawn)
  Sa helicase inh = -15.0 | MgrA-DNA mod = ·
SMILES: O=C(COC(=O)/C=C/c1ccco1)Nc1nc(-c2ccccc2)cs1
  Sa helicase inh = 10.0 | MgrA-DNA mod = ·
SMILES: O=C(OCN1C(=O)c2ccccc2C1=O)C1CCCN1S(=O)(=O)c1ccc(Cl)cc1 (stereo not drawn)
  Sa helicase inh = -6.0 | MgrA-DNA mod = ·
SMILES: CC(=O)N(CCC#N)c1ccccc1
  Sa helicase inh = -9.0 | MgrA-DNA mod = ·
SMILES: O=C(Nc1ccc2nn(-c3cccc4ccccc34)nc2c1)c1ccc2c(c1)OCCO2
  Sa helicase inh = · | MgrA-DNA mod = 3.2
SMILES: COC(=O)c1ccccc1NC(=O)CSc1nc2ccccc2nc1C
  Sa helicase inh = 11.0 | MgrA-DNA mod = ·

A second format for 2 compounds above:
compound | Sa helicase inh | MgrA-DNA mod
COCCN(CCOC)S(=O)(=O)c1ccc(C(=O)Nc2nc3ccc(Br)cc3s2)cc1 | · | 0.1
CCc1ccc(NC(=O)CSc2ccc3nnc(-c4ccccn4)n3n2)cc1 | 4.0 | 3.6

Some of the entries so far, with two lines to a compound.
Every second line gives: Sa helicase inh | MgrA-DNA mod
- Cc1nc(C)c2c(c1C(F)(F)F)-c1ccccc1C2(F)F
→ -15.0 | ·
- COc1cc(C)c(C)cc1S(=O)(=O)NC1CC(C)(C)NC(C)(C)C1
→ -15.0 | ·
- N#Cc1ccccc1NC(=O)CSc1ccccc1
→ -16.0 | -1.3
- Cc1cc(=O)n2c(n1)NC(=NCc1ccccc1)NC2c1cccnc1 (stereo not drawn)
→ -3.0 | 0.1

Looked up above.
CC(C(=O)NCCCc1ccccc1)N1C(=O)C2CC=CCC2C1=O (stereo not drawn) in Sa helicase inh has -11.0
COC(=O)c1ccccc1NC(=O)CSc1nc2ccccc2nc1C in Sa helicase inh has 11.0
CCC(c1nnc(SCc2nnc(-c3ccccc3)o2)n1Cc1ccccc1)N(C)C (stereo not drawn) in Sa helicase inh has -5.0
Cn1c(SC/C([O-])=c2/sc3n(c2=O)c2ccccc2[n+]3C)nc2ccccc21 in Sa helicase inh has -15.0

(more compounds)
SMILES: CCc1c(O)c2ccccc2n(C)c1=O
  Sa helicase inh = · | MgrA-DNA mod = 2.5
SMILES: CC(c1ccccc1)N1CCC(c2nc3ccccc3[nH]2)CC1 (stereo not drawn)
  Sa helicase inh = -18.0 | MgrA-DNA mod = ·
SMILES: NC(=O)C[n+]1ccn2c(NC3CCCCC3)c(-c3ccc(N4CCOCC4)cc3)nc2c1
  Sa helicase inh = 3.0 | MgrA-DNA mod = -0.1
SMILES: O=C(CN1C(=O)c2cccc3cccc1c23)NC1CCCC1
  Sa helicase inh = 12.0 | MgrA-DNA mod = -7.9
SMILES: O=c1n(-c2ccc(F)cc2)nc2n1CCCN2
  Sa helicase inh = · | MgrA-DNA mod = -0.1
SMILES: O=C(Cc1csc(NC(=O)Nc2ccc(Cl)cc2)n1)NCc1ccco1
  Sa helicase inh = 6.0 | MgrA-DNA mod = ·
SMILES: NC(=O)c1cccc(C(N)=O)c1F
  Sa helicase inh = · | MgrA-DNA mod = 0.8
SMILES: CN1CCC(N(C)C(=O)c2cc(Cl)cc(Cl)c2)CC1
  Sa helicase inh = -9.0 | MgrA-DNA mod = -0.2
SMILES: Cc1ccc(SCC(=O)NN=C2CCN(C)CC2)cc1
  Sa helicase inh = -11.0 | MgrA-DNA mod = ·
SMILES: CC(C)N(C(=O)Cn1c2ccccc2c2nc3ccccc3nc21)c1ccccc1
  Sa helicase inh = 9.0 | MgrA-DNA mod = 0.6
SMILES: COc1ccc(NC(C)=O)c(NC(=O)c2c(-c3ccccc3Cl)noc2C)c1
  Sa helicase inh = · | MgrA-DNA mod = -2.5
SMILES: CCOC(=O)c1sc2ncn3c(-c4ccc(C)cc4)nnc3c2c1C
  Sa helicase inh = -1.0 | MgrA-DNA mod = 0.2
SMILES: O=C(OCC(=O)N(CC1CCCO1)c1nc(-c2ccc(Br)cc2)cs1)c1ccco1 (stereo not drawn)
  Sa helicase inh = 0.0 | MgrA-DNA mod = ·
SMILES: COc1ccc(-c2ncccc2O)cc1
  Sa helicase inh = 2.0 | MgrA-DNA mod = -0.5
SMILES: CCC(C)NC(=O)Nc1cccc(C)c1 (stereo not drawn)
  Sa helicase inh = 6.0 | MgrA-DNA mod = -1.6
SMILES: O=C1NC(=S)NC(=O)C1=Cc1ccc(OCc2ccc(C(=O)O)cc2)c(Br)c1
  Sa helicase inh = · | MgrA-DNA mod = 34.9
SMILES: CN(C)C(=O)COC(=O)C1CCN(S(=O)(=O)c2ccccc2C(F)(F)F)CC1
  Sa helicase inh = 3.0 | MgrA-DNA mod = ·
SMILES: CC(C)(C)NC(=O)C1N(C2CC2)C(=O)C2C(C(=O)NCc3ccccc3)C3C=CC21O3 (stereo not drawn)
  Sa helicase inh = 3.0 | MgrA-DNA mod = 0.2
SMILES: O=C(NCSc1nc2ccccc2o1)C(F)(F)F
  Sa helicase inh = -12.0 | MgrA-DNA mod = 2.2
SMILES: Cc1ccc(C)c(N2CCN(C(=O)C3CCCN3S(=O)(=O)c3cccc4nsnc34)CC2)c1 (stereo not drawn)
  Sa helicase inh = 9.0 | MgrA-DNA mod = -5.0
SMILES: Cc1sc2c(c1C)CSC(C(=O)NC(C)C)=C2
  Sa helicase inh = 8.0 | MgrA-DNA mod = 9.2
SMILES: O=C(Cc1cnn(-c2ccccc2)c1)c1ccc(O)c(O)c1O
  Sa helicase inh = 18.0 | MgrA-DNA mod = ·
SMILES: O=C(/C=C/c1ccccc1Cl)Nc1ncn[nH]1
  Sa helicase inh = 10.0 | MgrA-DNA mod = 4.8
SMILES: O=C(O)c1cc(C(=O)O)cc(N2C(=O)CSC2=S)c1
  Sa helicase inh = 15.0 | MgrA-DNA mod = ·
SMILES: Cn1cc(NC(=O)N2CCc3ccccc3C2)c2ccccc21
  Sa helicase inh = 4.0 | MgrA-DNA mod = ·
SMILES: CCCCNC(=O)C1CCN(Cc2cccc(OC)c2O)CC1
  Sa helicase inh = -5.0 | MgrA-DNA mod = -0.7
SMILES: CSc1ccc(S(=O)(=O)Nc2c(C)cc(OCC(=O)N3CCOCC3)cc2C)cc1
  Sa helicase inh = 12.0 | MgrA-DNA mod = 4.6
